# Env fusion inh: inhibitors of HIV Env-mediated cell fusion; HeLa-JRFL Env/CEM21 cell fusion, luciferase; inhibition, % at 12.3 µM; 360,000 tested, 1.1% active; AID 651610;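 active = mean replicate inhibition score of at least 50 and every replicate individually at or above 50; inconclusive = only one of the two criteria met; inactive = mean below 50 and not all replicates reaching 50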;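 note: 0% = plate neutral controls and 100% = maraviroc near 300 nM; one replicate is shown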
# eIF4H FP inh: inhibitors of RNA binding by human eIF4H | eIF4H fluorescence polarization binding assay | inhibition, % at 35 µM | 290,000 tested, 0.94% active;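 active = 50% or more with normal probe brightness, or confirmed in later tests; inconclusive = above 50% with abnormal brightness, or retests that disagree; inactive = below 50% or failed in later tests; about a fifth of its hits are not listed in these tables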;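 note: calls also rest on retests at 20 µM and on dose response follow-up; 0% = protein and probe with vehicle and 100% = probe without protein; strong numbers were not always called active; many hits fall short of the cut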
# Rce1 inhib: inhibitors of yeast Ras-converting enzyme. yeast membranes, quenched prenylated peptide cleavage fluorescence. Q03530. calls only. 290,000 tested, 0.27% active;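 active = fall in fluorescence gain of 50% or more versus controls, with final raw signal at or below 3038400; inconclusive = same 50% fall but final raw signal above 3038400; inactive = fall in fluorescence gain under 50%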;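 note: plate controls were neutral control wells for no effect and wells lacking membranes for full effect; tested at 10 µM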
# Yeast UUG start: modulators of start codon recognition fidelity in yeast | 350,000 tested, 0.13% active | activity score, % at 18.7 µM | S. cerevisiae UUG-firefly luciferase reporter, luminescence/redox ratio;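 active = replicate mean at a twofold rise or more, about +100% in these data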;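 note: firefly luciferase made from a UUG start codon reports start codon fidelity; reporter light over untreated wells divided by growth signal over untreated wells; some hits fall short of that in this replicate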
# MT1-MMP act inh: inhibitors of human MT1-MMP activation; P50281; HT1080 RFP-PRO-GFP cells, GFP/RFP ratio fluorescence, overnight; percent of plate control window, DMSO zero; GFP/RFP ratio change, % at 20 µM; 360,000 tested, 0.061% active;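 active = GFP/RFP ratio change of at least 30% with cell ATP level not reduced by more than half and red fluorescence within 50% of control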; note: strong numbers were not always called active
#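 Compound: 20 µM single dose, 1% DMSO / System: HT1080 RFP-PRO-GFP cells / Controls: DMSO and RFP-L50D-GFP cell wells / Read-out basis: GFP/RFP fluorescence ratio / Schedule: overnight compound exposure at 37 °C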
# PABP FP inh: blocks human PABP binding to poly(A) RNA. P11940. fluorescence polarization. inhibition, % at 35 µM. 290,000 tested, 1% active;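 active = 50% or more with normal probe brightness, or confirmed in later tests; inconclusive = above 50% with abnormal brightness, or retests that disagree; inactive = below 50% or failed in later tests; about a fifth of its hits are not listed in these tables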;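 note: calls also rest on retests at 20 µM and on dose response follow-up; controls were probe without protein and protein plus probe with vehicle; some compounds called inactive have numbers as strong as hits; many hits fall short of the cut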
# Target sequence (P11940 whole entry, looked up): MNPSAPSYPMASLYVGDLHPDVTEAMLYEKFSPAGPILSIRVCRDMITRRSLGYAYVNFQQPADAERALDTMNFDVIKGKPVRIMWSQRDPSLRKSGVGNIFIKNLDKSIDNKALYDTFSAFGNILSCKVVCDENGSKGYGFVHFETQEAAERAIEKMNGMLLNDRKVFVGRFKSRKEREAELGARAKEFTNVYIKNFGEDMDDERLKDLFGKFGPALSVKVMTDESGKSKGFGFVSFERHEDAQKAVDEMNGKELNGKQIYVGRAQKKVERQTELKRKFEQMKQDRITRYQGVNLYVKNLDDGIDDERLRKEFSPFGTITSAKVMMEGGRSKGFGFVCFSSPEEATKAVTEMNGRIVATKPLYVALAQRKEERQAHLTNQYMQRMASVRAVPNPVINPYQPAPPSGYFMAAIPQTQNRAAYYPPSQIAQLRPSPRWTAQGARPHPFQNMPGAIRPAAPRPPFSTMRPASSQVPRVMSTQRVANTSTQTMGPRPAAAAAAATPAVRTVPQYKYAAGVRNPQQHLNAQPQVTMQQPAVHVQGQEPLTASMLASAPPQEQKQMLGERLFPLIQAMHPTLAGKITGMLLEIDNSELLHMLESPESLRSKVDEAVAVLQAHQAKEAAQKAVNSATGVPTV
# CSC inhib: cancer stem cell inhibition; cancer stem cell-like cells viability, luminescence; 300,000 tested, 1.1% active; inhibition, % at 7.5 µM;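 active = mean at 75% or more and at least half the replicates too; inconclusive = mean and replicates disagree; tested in HMLE shEcad cells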;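 note: 0% = median of negative and 100% = median of positive control wells; the first replicate is given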
# MT1-MMP act inh RFP: also measured in MT1-MMP act inh; calls as there; RFP signal change, %; measured here: RFP expression control read;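 0 = vehicle wells; hits needed this value within 50% of zero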
# * = called active by the depositor; i = inactive; ? = inconclusive; . = no result given. This is a subset; count on the stated rates, not on these rows.
SMILES,Env fusion inh,eIF4H FP inh,Rce1 inhib,Yeast UUG start,MT1-MMP act inh,MT1-MMP act inh RFP,PABP FP inh,CSC inhib
Cc1ccc(NC(=O)N2CCC(C(=O)c3ccc(F)cc3)CC2)cc1,17.6,-7.3,i,-32.6,1.5,-2.8,-7.2,-7.6
CC(C)CCN(C(=O)CCSc1ccc(F)cc1)c1c(N)n(Cc2ccccc2)c(=O)[nH]c1=O,19.2,.,i,-15.1,-7.3,-7.3,.,-3.6
CCCN(CCC)CCNC(=O)C1CCN(S(=O)(=O)c2cccc3nsnc23)CC1,-1.7,-7.5,i,-2.8,-0.2,1.8,-2.9,-5.2
Cc1ccccc1C(=O)Nc1ccnn1C1CCN(CC2CC=CCC2)CC1 (stereo not drawn),-65.3,-0.1,i,-15.1,5.2,4.6,-5.9,-5.2
COc1ccc(NC(=O)c2cccc(N3C(=O)c4cccc([N+](=O)[O-])c4C3=O)c2)cc1,-5.0,-6.9,i,-8.7,-2.4,-1.4,2.5,-2.2
Cc1ccc(OCC(=O)Nc2ccc(S(=O)(=O)Nc3ccccn3)cc2)cc1,3.7,-4.1,i,.,-2.3,-2.7,6.2,-18.1
COc1cc(CNC(=O)c2cnccn2)cc(OC)c1,-3.1,.,.,-9.2,-1.8,-1.9,.,.
COc1cc2c(C(=O)NCc3ccccn3)cn(C)c(=O)c2cc1OC,-24.9,-0.5,i,-3.5,-3.6,0.2,-5.3,-5.3
Cc1cc(N2CCCCCC2)nc2ccccc12,13.5,5.4,i,-1.8,-1.2,-0.9,11.4,4.1
O=C(NN1C(=O)C2C3C=CC(O3)C2C1=O)c1ccncc1 (stereo not drawn),6.5,-4.4,i,.,0.3,-2.7,-1.5,-7.6
COC(=O)c1ccc2c(=O)n(CCN3CCOCC3)c(SCC(=O)Nc3ccc(C)cc3)nc2c1,21.3,-7.3,i,-12.8,.,.,-1.6,.
C/C(=N\NC(=O)c1ccc(NS(=O)(=O)c2cccs2)cc1)c1ccc2ccccc2c1,-7.0,-9.2,i,-13.5,5.2,8.2,-2.0,44.0
O=C(O)CC(C(=O)O)c1ccc(OCCCCOc2ccc(C(CC(=O)O)C(=O)O)cc2)cc1 (stereo not drawn),7.4,100.6*,i,14.2,1.4,0.6,68.0*,-2.0
O=C(CCCCCl)Nc1c2c(nc3ccccc13)CCC2,14.5,-8.4,.,-13.3,-0.2,3.8,2.7,-9.3
C=CCN(c1ccc(C(=O)NCCSc2ccccc2)cc1)S(C)(=O)=O,4.4,-5.7,i,-1.1,-4.7,-2.1,-11.0,16.8
O/N=C/c1cn(-c2ccccc2)nn1,-4.6,-7.0,i,.,2.7,1.0,-8.2,3.7
CCOC(=O)N1CCC(N2C(=O)c3ccc(C(=O)NCc4ccc(F)cc4)cc3C2=O)CC1,-27.6,3.9,.,-12.4,0.8,-8.2,-16.4,-14.5
Cc1ccc(-n2c(N)c(C(=O)N3CCCCC3)sc2=S)cc1,-2.0,5.3,i,-28.6,-4.0,-0.6,-0.5,-1.9
CCOC(=O)C/C(N)=N/NC(=O)c1ccc(Cl)cc1Cl,-0.5,-0.8,i,.,-7.0,-1.2,-1.1,1.6
CC(C)(C)NC(=O)CSc1nncn1NCc1cccc2ccccc12,.,-7.0,i,-15.9,2.8,-3.2,-7.6,-17.2
Cn1nccc1C(=O)N1CCN(c2ccccc2F)CC1,-2.1,3.0,i,4.0,-4.3,-1.5,-3.6,-4.7
COc1cc(C(=O)Oc2ccc(C(=S)N3CCOCC3)cc2)cc(OC)c1OC,6.8,21.9,i,-26.5,5.5,-3.0,-9.4,-13.7
Cn1nnnc1SCC(=O)NCc1ccc2c(c1)OCO2,2.9,-1.4,i,.,-2.5,1.4,-9.9,-6.4
CCN(Cc1cc2cc(C)ccc2[nH]c1=O)C(=O)c1cccc(OC)c1,.,-8.1,i,4.3,-3.7,-4.0,-15.6,-3.1
CCOC(=O)c1ccc(NC(=O)CSc2nnc(C3CC3)n2CC)cc1,.,-0.5,i,-12.0,3.5,10.9,3.6,11.5
COc1ccc(CNC(=O)c2cnccn2)cc1,-15.6,10.5,i,5.6,-4.7,0.8,2.2,-20.1
COc1ccc(C(C(=O)NCc2ccccc2)N(Cc2ccc3c(c2)OCO3)C(=O)c2cnccn2)cc1 (stereo not drawn),-18.4,2.1,i,2.8,0.9,0.4,-3.1,.
O=C(Cn1ncc2c1-c1ccccc1OC2)Nc1cccc(Cl)c1,-42.0,1.1,i,-7.3,-0.4,-8.7,5.5,8.9
Cc1c(S(=O)(=O)Nc2ccc(Br)cc2)c(=O)n(C)c(=O)n1C,.,0.4,i,-13.4,0.3,1.1,-5.2,-8.2
CCCCNC(=O)N1CCCN(c2ccc(C#N)cn2)CC1,-40.6,4.6,i,-6.1,3.3,3.8,7.9,2.2
Cc1cc(C(=O)O)n(C(C)(C)C)n1,4.8,-2.1,i,6.5,2.6,-2.6,-2.6,7.7
CC1CCC2(CC1)NC(=O)N(CC(=O)NCc1ccc3c(c1)OCO3)C2=O (stereo not drawn),5.2,12.1,i,.,-1.9,5.8,6.6,.
Cc1cc(C)n(Cc2ccc(NC(=O)c3nn(C)cc3[N+](=O)[O-])cc2)n1,-0.2,-0.4,i,-8.2,-18.5,-13.1,-1.0,44.6
O=C(NC(=S)Nc1ccccc1N1CCCC1)c1ccc(-c2cccc([N+](=O)[O-])c2)o1,-50.4,?,i,-13.3,-4.5,2.7,?,7.1
CC1(C(=O)NCC2CCCCC2)CCN1CCc1ccccc1 (stereo not drawn),0.9,.,.,-7.2,-3.0,0.5,.,.
Cc1ccc(C)c(NC(=S)N2CCC(c3nc4ccccc4s3)CC2)c1,.,2.7,i,-26.9,5.4,-2.2,-1.1,7.2
CCCCn1c(N)c(N2CCOCC2)c(=O)n(CC(=O)NC(C)c2ccccc2)c1=O (stereo not drawn),-2.2,3.2,i,.,0.2,1.3,5.4,-5.3
CCC(=O)c1cn(CC(=O)Nc2cccc(C)c2)c2ccccc12,-34.8,-10.5,i,-9.4,4.7,1.7,-2.1,-5.5
COc1cc(C(O)P(=O)(OC(C)C)OC(C)C)cc(OC)c1OC (stereo not drawn),11.9,-1.3,i,-7.7,4.1,4.1,25.0,.
Cc1cc(C)cc(N(CC(=O)NC2CCC(C)CC2)S(=O)(=O)c2c(C)[nH]c(=O)[nH]c2=O)c1 (stereo not drawn),5.3,-5.2,.,18.1,-0.3,1.7,4.8,-21.7

# Single entries from above.
# Result for Cc1ccc(C)c(NC(=S)N2CCC(c3nc4ccccc4s3)CC2)c1 under PABP FP inh: -1.1
# Result for Cc1cc(C)n(Cc2ccc(NC(=O)c3nn(C)cc3[N+](=O)[O-])cc2)n1 under eIF4H FP inh: -0.4
# Result for CCC(=O)c1cn(CC(=O)Nc2cccc(C)c2)c2ccccc12 under Env fusion inh: -34.8

# New compounds follow:
SMILES,Env fusion inh,eIF4H FP inh,Rce1 inhib,Yeast UUG start,MT1-MMP act inh,MT1-MMP act inh RFP,PABP FP inh,CSC inhib
COc1ccc(NC(=O)c2cnc3ccccn3c2=O)c(OC)c1,-71.7,.,.,-12.9,2.9,5.5,.,.
O=C(CCN1C(=O)/C(=C/c2ccccc2F)SC1=S)NCCCn1ccnc1,5.8,.,i,-16.8,-0.3,0.3,.,12.0
CCOC(=O)C(NC(C)=O)(Nc1ccc(S(N)(=O)=O)cc1)C(F)(F)F (stereo not drawn),-9.9,-8.5,i,.,1.9,6.0,-4.1,.
COCC(=O)N1CCC(Oc2ccc(C(=O)NC(C)c3csc(C)n3)cc2)CC1 (stereo not drawn),1.1,-6.5,i,-0.7,-1.1,0.5,-4.9,1.1
COc1nc(NCC(C)C)nc(Oc2ccc(=O)n(-c3ccccc3)n2)n1,-0.8,7.5,i,-7.4,1.7,6.1,-0.6,-2.6
Cn1c(C(C#N)C2=C(Cl)C(=O)N(c3ccccc3)C2=O)nc2ccccc21 (stereo not drawn),.,?,.,.,.,.,?,4.8
Cc1nn(CC(=O)Nc2ccc(C(=O)N3CCCC3)cc2)c(=O)c2ccccc12,14.2,11.5,i,-4.8,0.8,1.1,2.6,-7.8
COc1ccccc1-c1noc(-c2ccccc2C(=O)N2CCOCC2)n1,.,-6.9,i,10.1,2.7,8.6,-10.9,6.6
COc1ccc(C(=O)OCCNC(=O)c2ccncc2)cc1OC,19.7,-11.5,i,-26.1,-0.1,-0.1,-15.5,-9.1
Cc1cccn2cc(CNc3ccccc3)nc12,2.9,7.0,i,-15.1,1.0,0.4,14.1,.
O=C(Nc1ccc(-c2cn3c(n2)SCC3)cc1)c1ccc2c(c1)OCO2,-11.2,-12.8,i,-9.4,1.4,-0.4,-12.5,-3.0
CCNc1nc(NC(C)C)nc(SCCOc2ccc(C)cc2)n1,.,-14.3,i,38.2,1.1,-6.6,-16.5,.
NS(=O)(=O)c1ccc(CNC(=O)c2csc3c2CCCC3)cc1,17.0,-17.2,i,.,-1.4,2.7,-9.0,-8.2
CCc1nnc(NC(=O)CSc2nc3c(C)cccc3[nH]2)s1,.,4.3,i,.,0.2,-0.1,-5.4,10.4
O=C1C2CCCN2C(c2ccco2)N1c1ccc(F)cc1 (stereo not drawn),-8.2,-6.2,i,.,0.9,2.0,-15.3,-4.9
CN1CCN(CC2(O)CCN(S(=O)(=O)c3ccc(Cl)cc3)CC2)CC1,-2.9,-9.8,i,.,0.4,1.8,-9.8,-5.0
O=C(N/C(=C/c1cccs1)C(=O)N1CCCC1)c1ccccc1,-1.4,-15.1,i,4.2,2.3,4.2,-5.3,5.8
CC(=O)c1cn(C)c(=O)c2ccccc12,-8.3,8.6,i,-16.7,-1.7,-0.2,6.8,-7.3
Brc1ccc(Oc2nnnn2-c2ccccc2)cc1,9.4,-8.5,i,50.8,1.7,2.3,6.7,-3.5
CC1(C)OC(=O)C(=CNC(CCC(N)=O)C(=O)O)C(=O)O1 (stereo not drawn),-33.2,-11.7,i,-6.6,5.0,10.9,19.4,-11.2
CCOC(=O)Cc1csc(NC(=O)CSc2nnc(-n3nc(C)cc3C)c3ccccc23)n1,18.1,-1.2,i,-7.5,-4.6,-6.1,-1.4,3.9
COc1ccc(CCNC2CCC(c3ccccc3)CC2)cc1 (stereo not drawn),-1.7,5.0,i,-25.9,2.2,6.5,-3.4,-7.6
COc1ccc(C(=O)CN2C(=O)NC3(CCCCCC3)C2=O)c(OC)c1,-5.7,.,i,-5.8,-1.6,-1.4,.,-11.0
CCC1(CC)C(C#N)C(=O)NC(=O)C1C#N (stereo not drawn),5.4,.,.,-9.3,-0.2,5.7,.,.
C=CCn1c(=NC(=O)c2ccc(S(=O)(=O)N3CCCc4ccccc43)cc2)sc2cc(S(N)(=O)=O)ccc21,13.2,-11.5,i,-4.9,-3.1,-2.5,-0.6,?
O=C(CN1CCc2ccccc2C1)Nc1ccc(F)cc1,3.3,-6.9,i,-17.4,-0.9,-0.7,-0.7,-14.8
Cc1ccc(NS(=O)(=O)c2ccc(C(=O)Nc3nncs3)cc2)cc1,9.7,.,.,14.1,.,.,.,-12.3
Cc1cc(C)[n+]2[nH]c(N)c(N=Nc3ccccc3)c2n1,-15.8,.,i,.,2.0,-4.0,.,-1.6
O=C(O)C1CCN(c2ccc(S(=O)(=O)N3CCCCC3)cc2[N+](=O)[O-])CC1,-15.1,.,.,7.8,0.2,-3.0,.,.
Cc1ccc(NC(=O)C(=Cc2ccc(C(=O)O)cc2)C(=O)Nc2ccc(C)cc2C)c(C)c1,.,5.8,i,.,-0.9,-17.5,-4.8,159.1*
Cc1ccccc1-c1nc(-c2ccc(Br)o2)no1,-68.6,-1.7,i,-23.4,-2.0,4.9,-9.1,5.0
